# Screening data deposited in PubChem BioAssay by National Center for Advancing Translational Sciences (NCATS).
# TRPV1 PAM = HTS Assay for Compounds that Act as Potentiators of the Vanilloid Receptor 1 | Transient receptor potential cation channel subfamily V member 1 (Homo sapiens), Q8NER1 | hit rate 0.02% among 320,000 | TRPV1-expressing cells, Fluo-8 calcium influx, capsaicin EC20 potentiation; host cell line not named in the record; control for the full effect not named in the record | potentiation, % at 8.33 µM | AID 540277, 2011; active means potentiation above 80%; inconclusive means 30% to 80%; inactive means below 30%; note: 0% is about no effect
#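 TRPV1-expressing cells were cultured overnight at 35.5C and loaded with Fluo-8 calcium dye for 40 to 90 min at room temperature. After a 10 s baseline, compound was added and calcium influx was read kinetically for 3 min (ex 480/em 520 nm).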
# ClpP mod = qHTS Assay for Activators of ClpP; ATP-dependent Clp protease proteolytic subunit (Bacillus subtilis (strain 168)), P80244; purified B. subtilis ClpP, FRET peptide cleavage, 20 min; Potency, µM (top dose mostly 57.5 µM), inactives show at the highest dose activity change, negative = active; hit rate 1.9% among 340,000; AID 651965, 2013; active = well fitted falling curve with a large enough effect; inconclusive = small, poorly fitted or top-dose-only effect; inactive = no such curve, though single readings can be large or run the other way; note: potency is the fitted concentration of half-maximal effect; the source files actives as falling curves though it sought activators and does not explain the sign; nearly all actives have a fitted effect of over 65% in size; many hits overshoot -100%
# Target sequence (P80244 whole entry, looked up): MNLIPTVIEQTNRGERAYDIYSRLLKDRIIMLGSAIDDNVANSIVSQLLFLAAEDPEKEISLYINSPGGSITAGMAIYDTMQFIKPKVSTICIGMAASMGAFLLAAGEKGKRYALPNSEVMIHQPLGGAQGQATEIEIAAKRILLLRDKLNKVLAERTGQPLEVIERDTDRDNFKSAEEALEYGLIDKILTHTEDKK
#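 Purified B. subtilis ClpP, 10 microg/mL final in Tris/HCl pH8 with KCl, BSA, glycerol and Tween-20, cleaved an Abz/nitrotyrosine-quenched decapeptide. Fluorescence (ex 320, em 430) was read at 0 and 20 min at room temperature. Delta was normalized to 5.8 microM ADEP and DMSO/no-enzyme controls.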
# PINK1 modulator = A Quantitative High throughput Screen to Identify Chemical Modulators of PINK1 Expression; Potency, µM (titrated, usually from 76.6 µM), for the others: at the highest dose activation (PINK1 increase), actives largely listed as activators; AID 624263, 2012; PINK1 immunofluorescence, high-content cytometry, 24 h; hit rate 0.2% among 410,000; active = well fitted activation curve with a large enough effect; inconclusive = small, poorly fitted or top-dose-only effect; inactive = flat fitted curve, though single readings scatter; cell line not stated here;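 note: potency is the fitted concentration of half-maximal effect; % of control where 0% means no effect; nearly all actives have a fitted effect of over 65% in size; a mitochondrial uncoupler was the plate control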
#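 Stable cell line, 250 cells/well, 12 h attachment; compounds pinned at 5 concentrations, 24 h; CCCP control. Fixed with nuclear dye, primary antibodies 12 h at 10 degrees C, secondary plus cell stain; laser-scanning cytometer read.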
# Menin MLL FP FL = qHTS Assay for Inhibitors Targeting the Menin-MLL Interaction in MLL Related Leukemias: Competition With Fluorescein Labeled MLL-derived Peptide | Fluorescence polarization, fluorescein-MLL peptide displacement from menin | FP activity change, % at 61.4 µM | 290,000 tested, under 10 active; inconclusive = falling polarisation curve, or a change in total fluorescence; inactive = total fluorescence flat and polarisation flat or rising; no compound was filed as active; the % refers to the polarisation; negative = inhibition;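 note: % of control where 0% means no effect; inhibitors lower the polarisation; unlabelled MLL peptide was the positive control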
# TRPML1 ag = qHTS for Agonists of the Human Mucolipin Transient Receptor Potential 1 (TRPML1); Mucolipin-1 (Homo sapiens), Q9GZU1; TRPML1-expressing cells, Ca2+ dye fluorescence, FDSS; host cell line not named in the record; reference of the full effect not given here; activation, % (test concentration not listed); hit rate 0.12% among 410,000; in the data active = activation above about 50%; inconclusive = about 30% to 50%; inactive = below about 30%; note: 0% is about no effect; the text of the record puts the active cut at 80%
# Target sequence (Q9GZU1 whole entry, looked up): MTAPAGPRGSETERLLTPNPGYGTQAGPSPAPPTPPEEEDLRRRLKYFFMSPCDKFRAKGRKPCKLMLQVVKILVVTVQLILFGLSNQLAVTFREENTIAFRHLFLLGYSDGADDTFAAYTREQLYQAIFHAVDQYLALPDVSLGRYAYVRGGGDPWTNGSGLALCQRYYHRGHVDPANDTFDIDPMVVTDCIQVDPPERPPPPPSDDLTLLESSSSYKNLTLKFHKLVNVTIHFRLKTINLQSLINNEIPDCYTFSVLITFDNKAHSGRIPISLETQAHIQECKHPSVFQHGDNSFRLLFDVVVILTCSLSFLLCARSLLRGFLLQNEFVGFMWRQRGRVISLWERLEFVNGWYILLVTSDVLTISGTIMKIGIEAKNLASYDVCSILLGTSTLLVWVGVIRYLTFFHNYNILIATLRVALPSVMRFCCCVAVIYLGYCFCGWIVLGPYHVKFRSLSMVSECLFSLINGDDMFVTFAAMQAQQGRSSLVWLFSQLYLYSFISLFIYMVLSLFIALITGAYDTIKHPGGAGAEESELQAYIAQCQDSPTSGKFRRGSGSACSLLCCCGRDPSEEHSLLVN
#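 Cells: TRPML1-DL, 1X Tet inducer, ~16 h at 37 degrees C/5% CO2. Dye: ABD Ca8 no-wash + quencher, 45-90 min RT. Read: 10 s baseline, compound add, 110 s agonist phase; 54-4 EC80 (4uM final), 110 s antagonist phase.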
# Sfp inh = qHTS Assay for Inhibitors of Bacillus subtilis Sfp phosphopantetheinyl transferase (PPTase) | hit rate 3.5% among 310,000 | AID 1490, 2009 | Biochemical Sfp PPTase activity, qHTS | Potency, µM, for the others: max response, negative = inhibition, most hits filed as inhibitors; active = well fitted inhibition curve with a large enough effect; inconclusive = small, poorly fitted or top-dose-only effect, or another doubt; inactive = no such curve, though single readings can be large or run the other way;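 note: the enzyme is Sfp with the accession as filed and its product quenches rhodamine fluorescence; potency is the fitted concentration of half-maximal effect; 0% = enzyme reaction without inhibitor and -100% = no enzyme wells; top concentration of the series not given in the record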
#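 After 15 min at room temperature with compound, 15 nM Sfp received 5 uM rhodamine-CoA plus 12.5 uM BHQ-2-ybbR (50 mM Hepes pH 7.6, 10 mM MgCl2). Rate came from the fluorescence difference over 30 min, ex 525/em 598 nm.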
# TRPML1 inh = qHTS for Inhibitors of the Human Mucolipin Transient Receptor Potential 1 (TRPML1) | activity change, negative = inhibition, % (test concentration not listed) | AID 624415, 2012 | TRPML1-inducible cells, Ca2+ dye fluorescence, FDSS; active compounds read low; inhibition of EC80 agonist-evoked calcium signal | hit rate 0.02% among 390,000 | Mucolipin-1 (Homo sapiens), Q9GZU1; in the data active means activity change below about -50%; inconclusive means about -30% to -50%; inactive means above about -30%;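 note: stimulus is agonist 54-4 at its EC80 concentration; % is set by controls: 0 for no effect and ±100 for the full control effect; compound concentration not given in the record; the text of the record puts the active cut at -80%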
#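 Tet-induced TRPML1-DL cells loaded with Ca8 no-wash calcium dye were read kinetically on FDSS. Compound addition was followed by EC80 agonist 54-4 (4 uM final); inhibition was read over 110 s.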
# * hit, by the source's call; ? = inconclusive; . = no result given; & = joins results of further samples; [ ] = another dose, or the depositor's remark.
SMILES,TRPV1 PAM,ClpP mod,PINK1 modulator,Menin MLL FP FL,TRPML1 ag,Sfp inh,TRPML1 inh
CC1(C)CC(=O)c2sc(NS(=O)(=O)c3ccc(F)cc3)nc2C1,-3,.,0.6%,-2.2,0.2,-21%,7
O=C(CSc1nc(-c2ccccc2F)nc2nc[nH]c12)Nc1c(Cl)cc(Cl)cc1Cl,24,.,.,7.2,.,-3%,.
O=C(NCc1ccc(Cl)cc1)c1cc2ccc3cccnc3c2[nH]1,.,8.8%,-0.1%,.,0.8,.,2
CCCCC(=O)NNC(=S)NC(=O)C(c1ccccc1)c1ccccc1,-15,.,0.7%,3.1,10.0,24%,2
CCCCCCCCCn1cc(C(C)=O)c(=O)[nH]c1=O,-14,1.3%,-0.6%,0.1,0.0,7%,0
CC1CCN(S(=O)(=O)c2ccc(NC(=O)CN3CCCC(C)C3)cc2)CC1 (configuration not stated),3,0.2%,3.8%[38.3 µM],1.5,0.1,24%,-5
Cc1ccc(N2C(=O)c3ccccc3C2Nc2cccnc2)nc1 (configuration not stated),-8,0.2%,1.8%,-2.2,-0.2,21%,38
Cc1ccc(S(=O)(=O)NCCNc2ccc(Br)c(C)c2)cc1,.,1.5%,9.6%,.,-1.8,.,-11
CN(C)c1ccc(/C=N/N=C/c2ccccc2O)cc1,-1,1.4%,8.5%,?,1.9,2%,2
FC(F)(F)c1ccccc1Nc1nccs1,-8,2.4%,-2.1%,1.0,-0.5,-13%,-2
COc1ccc(/C=C(\C#N)C(=O)OCC(=O)NCc2ccccc2Cl)cc1,-11,.,-1.3%,6.0,0.6,2%,16
CC(=O)Oc1ccc(-c2cc3ccccc3oc2=O)cc1,.,3.9%,-0.7%,.,0.8,.,12
CCc1cc(C(=O)NCC(c2cccs2)N2CCOCC2)sc1C (configuration not stated),-9,2.4%,5.7%,.,-0.4,.,7
COc1ccc(CNC(=O)C2CCN(C(=O)c3ccc(-c4ccccc4)cc3)CC2)cc1,?,-1.8%,0.5%,-1.2,1.3,-15%,39
Cc1ccc(S(=O)(=O)CCC(=O)OCCOc2ccc(Br)cc2)cc1,.,0.2%,-0.6%,.,1.4,.,-9
COc1ccc(Cc2nc3ccc(C(=O)N4CCCC4)cc3o2)cc1OC,11,.,2.2%,-3.2,1.4,17%,4
CCNc1nc(NCC)nc(Nn2cnnc2)n1,1,-1.3%,24%[38.3 µM],1.5,1.4,-1%,-13
Cc1cc(C)c(NC(=O)CS(=O)CC(=O)NCC2CCCO2)c(C)c1 (configuration not stated),-13,-0.2%,-0.4%,-1.6,1.3,-11%,17
N#CC1=C(N)NC(SCc2ccccc2)=C(C#N)C12CCCCC2,1,?,3.5%[38.3 µM],4.1,-0.2,-29%,2
CCN(CC)S(=O)(=O)c1ccc(C)c(NC(=S)N2CCN(c3ccccn3)CC2)c1,-7,.,1.4%,3.1,0.2,?,4

# Brought forward from above: 3 entries; new compounds follow.
SMILES,TRPV1 PAM,ClpP mod,PINK1 modulator,Menin MLL FP FL,TRPML1 ag,Sfp inh,TRPML1 inh
Cc1cc(C)c(NC(=O)CS(=O)CC(=O)NCC2CCCO2)c(C)c1 (configuration not stated),-13,-0.2%,-0.4%,-1.6,1.3,-11%,17
N#CC1=C(N)NC(SCc2ccccc2)=C(C#N)C12CCCCC2,1,?,3.5%[38.3 µM],4.1,-0.2,-29%,2
CCN(CC)S(=O)(=O)c1ccc(C)c(NC(=S)N2CCN(c3ccccn3)CC2)c1,-7,.,1.4%,3.1,0.2,?,4
COc1ccc2nc(C)c3c(c2c1)OC(C(C)(Cl)Br)C3 (configuration not stated),-8,.,0.8%,1.2,1.4,7%,9
Cc1ccc(CSc2oc(-c3ccco3)nc2S(=O)(=O)c2ccc(Cl)cc2)cc1,.,-11%,1.1%,.,1.4,.,-2
O=C(Nc1cccnc1)c1cccc(S(=O)(=O)N2CCc3ccccc32)c1,14,.,2.5%,-1.5,1.3,6%,9
Cc1ccc(/C=N/NC(=O)C2CCN(Cc3ccc(F)cc3Cl)CC2)o1,18,0.3%,-0.4%,-1.1,-0.7,22%,-3
CCOc1cc(C(N)=O)cc(Cl)c1OCc1ccccc1,3,-3.2%,1.4%,-2.1,2.0,-9%,1
O=C1CN(C(=O)CSc2nnc(C3CC3)n2-c2ccccc2)c2ccccc2N1,-3,0.7%,-1.5%,5.7,-0.6,6%,13
CCOC(=O)CSc1nc2c(sc3ccc([N+](=O)[O-])cc32)c(=O)n1Cc1ccco1,-8,-1.0%,5.8%,3.9,-0.5,3.5µM*,-8
COc1ccc(N2C(=O)CC(SCC(=O)O)C2=O)cc1 (configuration not stated),-1,-1.1%,-0.1%,-0.9,-1.2,9%,9
CCn1cc(C(=O)N(C)c2ccc(OC)cc2)c2cc(OC)c(OC)cc2c1=O,-11,1.0%,0.9%,-4.2,.,14%,.
Cc1cc(C)c(NC(=O)CN(C)C(=O)CNC(=O)c2cccs2)c(C)c1,8,1.2%,0.7%,.,0.3,.,-7
O=C(NCC(=O)N1CCc2ccccc2C1)c1ccc(Cl)cc1Cl,-18,.,0.7%,0.1,2.0,-10%,?
CC1CCc2c(C(=O)Nc3ccc(N4CCOCC4)cc3)csc2C1 (configuration not stated),-3,1.1%,1.2%,-0.6,1.5,15%,27
CC1CC(C)CN(C(C(=O)NC2CCCCC2)c2cc3ccccc3o2)C1 (configuration not stated),.,-8.8%,9.8%,.,-0.3,.,.
O=c1c2ccccc2nc2c3ccccc3c(NCc3ccccn3)nn12,12,.,16%,3.8,0.8,4%,6
N=c1c2ccccc2nnn1-c1ccccc1[N+](=O)[O-],.,-1.4%,0.3%,.,0.3,.,15
CC(C)C(=O)Nc1ccc(S(=O)(=O)Nc2nccc(/C=C/c3ccccc3)n2)cc1,0,0.1%,0.7%,5.5,-0.5,22%,-17
Cc1ccc(S(=O)(=O)N2CCCCC2)cc1NC(=O)COC(=O)Cc1ccc(Cl)cc1,-1,0.2%,1.2%,-9.4,0.0,9%,33
O=[N+]([O-])c1ccc2cc[nH]c2c1,.,18µM*,1.7%,.,1.4,.,-9
O=C(N/N=C/c1ccc(O)cc1)/C(=C/c1ccc([N+](=O)[O-])cc1)NC(=O)c1ccccc1,4,2.3%,-1.1%,2.2,-0.5,26%,-1
O=C(Nc1nccs1)[C@@H]1CC=C[C@@H]2CCN(Cc3ccccc3)C(=O)[C@@H]21,.,0.1%&2.7%,0.5%,.,-0.4&-1.0,.,38
OC(CNCC1COc2ccccc2O1)COCc1cccs1 (configuration not stated),19,0.5%,-1.5%[38.3 µM],0.7,-0.6,-24%,-14
Cc1cc(Br)ccc1NC(=O)C(C)c1ccc([N+](=O)[O-])cc1 (configuration not stated),3,-3.2%,4.8%,-0.1,2.7,7%,-11
COc1ccc(/C=C2/SC(=S)N(Cc3ccccc3)C2=O)cc1O,13,-2.5%,-1.0%,?,.,-10%,.
Cc1cc(C)c(S(=O)(=O)N2CCCCC2)c(C)c1N(C)S(=O)(=O)c1ccccc1,-21,0.3%,.,0.8,1.2,8%,62
COc1ccc(-c2cc3nc(C)c(CCC(=O)Nc4ccccc4C(C)=O)c(C)n3n2)c(OC)c1,.,?,0.4%,.,-0.9,.,9
C=CCOc1ccc(CNc2nccs2)cc1,-39,-4.4%,3.2%,0.0,0.1,-4%,-6
Cc1ccc(NC(=O)c2ccc(Cn3cc(Cl)cn3)o2)c(C)c1,-9,.,.,0.8,.,-5%,.
O=C(NCCN1C(=O)S/C(=C\c2ccccc2Cl)C1=O)C1=COCCO1,3,-2.5%,?,.,-0.3,.,1
O=C(Cc1ccc(NC(=O)C2CCN(C(=O)C3CC3)CC2)cc1)Nc1ccc(C(=O)N2CCOCC2)cc1,.,0.0%,1.4%,.,1.0,.,-22
CC(=O)Nc1ccc(C(=O)Nc2cc(S(=O)(=O)N3CCOCC3)ccc2N2CCOCC2)cc1,.,0.5%,0.0%,.,1.7,.,-5
O=C(O)c1ccc2c(c1)N(Cc1cccc(F)c1)C(=O)CS2,.,-0.5%,-0.4%,4.7,-0.4,?,0
COc1ccc(N2CCN(C(=O)c3ccc4c(c3)CCN4S(=O)(=O)c3ccccc3)CC2)cc1,5,-1.4%&-0.4%,1.6%&0.9%,-4.6,5.6&-1.1,9%,8&46
CCOC(=O)c1c(-c2ccc(OC)cc2)csc1NC(=O)COc1ccc2c(C)cc(=O)oc2c1,-14,-11%,3.1%,0.6,-0.8,5%,13
COc1ccc(NC(=O)C2CC(=O)n3cnnc3S2)cc1 (configuration not stated),0,1.5%,0.5%,1.4,-0.4,56µM*,-4
CCCC(=O)OCC(=O)NCc1ccc(Cl)cc1,-13,.,2.4%,2.1,-1.1,7%,8
CC(C)(C)OC(=O)C[C@H]1C/C=C\C[C@H](CC(=O)N[C@H](CO)Cc2ccccc2)C(=O)N[C@@H](Cc2ccccc2)COC1=O,.,0.3%,0.6%,.,-0.5,.,6
Cc1cc(C)cc(-n2c(=O)c3sccc3n(CC(=O)NCc3ccco3)c2=O)c1,-4,-2.0%,-1.8%[38.3 µM],2.9,2.6,8%,-17
COCCCNC(=S)NC(=O)c1ccc(C)cc1,-17,-4.3%,0.7%,2.3,4.2,-14%,-14
CC(=O)OCCC(NS(=O)(=O)OCC(Cl)(Cl)Cl)c1ccccc1 (configuration not stated),-10,-1.7%,4.4%,3.2,-0.4,1%,7
Cc1ccc2[nH]c(=O)c(CN(CC3CCCO3)C(=O)c3ccncc3)cc2c1 (configuration not stated),1,?,-1.0%,0.9,-0.1,22%,3
